# Screening results as filed in PubChem BioAssay.
# Calb FLC – affects C. albicans growth with fluconazole. C. albicans CaCi-2 (fluconazole-resistant clinical isolate) + fluconazole, Alamar Blue growth, 48 h. growth inhibition, % (test concentration not listed). actives 0.57% (n = 300,000);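 active means most replicates above 75%; inconclusive means exactly half above 75%; inactive means most below 75%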;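 further: all wells also contain fluconazole at 8 µg/ml as a sub-toxic cotreatment; 0% = median of DMSO wells and 100% = median of geldanamycin control wells; wells of about 8 µL received 7.5 nL stock; the first replicate is given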
# Ecoli rRNA inh – inhibitors of bacterial rRNA selective over humanized ribosomes. E. coli WT GFP vs humanized-ribosome RFP mutants, fluorescence, 24 h; active compounds read low; DMSO median 0, no signal -100. GFP signal change (wild-type ribosome), % (no concentration beside the values). actives 1.6% (n = 350,000). AID 720706;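 active means significant combined selectivity score with lowered wild-type GFP, culture density cut under 30%, mutant RFP and density less affected; inactive means any of these conditions unmet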; further: one replicate is shown; some compounds called inactive have numbers as strong as hits
# Beta apoptosis – blocks beta cell apoptosis | INS-1E cytokine-induced death, ATP luminescence, 48 h; percent of positive-control rescue, neutral wells zero | protection from apoptosis, % (no concentration beside the values) | actives 0.8% (n = 300,000);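 active means all replicates at 75% or more, or half of them and the mean; inconclusive means half reach 75% but not the mean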;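 further: 0% = cytokine-treated negative control wells and 100% = positive control rescue; higher means more ATP so stronger rescue from cytokine killing; wells of about 40 µL received 100 nL stock; the first replicate is given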
# A1 inh – inhibitors of the anti-apoptotic protein A1, read as caspase activation; caspase activation, % (no concentration beside the values); MEF A1-2A-BIM cells, Caspase-Glo 3/7 luminescence, 3 h; percent of clofoctol response, vehicle zero; actives 0.066% (n = 330,000); AID 2462;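 active means over half of replicate activation scores above 10%, or exactly half above 10 with the replicate mean above 10; inconclusive means replicate mean below 10 yet half the replicates above 10; inactive means over half of replicates below 10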;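 further: wells of about 30 µL received 50 nL stock; many hits fall short of the cut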
# B2AR ag – human beta-2 adrenergic receptor agonism by FAP; P07550; actives 0.43% (n = 340,000); AID 504454; Am2.2-beta2AR cells, FAP receptor internalization, flow cytometry; reference of the scale not given here; response, % (test concentration not listed);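 active means response above a set limit, near 3 SD of response in nonfluorescent compounds, cut at about 42% in these data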;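 further: stock transfer was 100 nL into about 11 µL; a reference agonist was the positive control; negative values mostly stem from fluorescent compounds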
# Target sequence (P07550 whole entry, looked up): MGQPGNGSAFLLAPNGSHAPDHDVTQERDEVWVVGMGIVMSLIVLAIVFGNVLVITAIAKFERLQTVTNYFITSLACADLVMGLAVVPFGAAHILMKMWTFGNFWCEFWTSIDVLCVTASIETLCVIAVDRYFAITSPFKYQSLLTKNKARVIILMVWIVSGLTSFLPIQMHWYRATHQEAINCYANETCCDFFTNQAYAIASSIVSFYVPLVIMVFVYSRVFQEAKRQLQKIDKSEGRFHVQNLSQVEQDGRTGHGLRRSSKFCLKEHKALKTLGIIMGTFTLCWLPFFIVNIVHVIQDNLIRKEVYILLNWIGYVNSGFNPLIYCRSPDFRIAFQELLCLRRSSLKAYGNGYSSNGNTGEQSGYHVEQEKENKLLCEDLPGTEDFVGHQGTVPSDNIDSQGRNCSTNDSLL
# T cruzi repl – T. cruzi replication inhibition. T. cruzi beta-gal in NIH3T3, luminescence, 90 h. inhibition, % (no concentration beside the values). actives 1.4% (n = 300,000);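 active means mean inhibition across valid replicates above about 55%, limit read from the data; inconclusive means mean below that limit but half or more replicates reach it; inactive means mean below it, under half of replicates reach it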;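 further: signal also drops with host cell toxicity which is not excluded here; 0% = plate median of DMSO wells and 100% = zero luminescence signal; higher percent means less beta-gal luminescence so fewer parasites; stock transfer was 50 nL into about 50 µL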
# ALR H2O2 inh – inhibitors of human sulfhydryl oxidase ALR; purified ALR, DTT oxidation, H2O2 HRP-luminol luminescence; actives 3.8% (n = 290,000); AID 485317; inhibition, % (no concentration beside the values);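 active means mean and each replicate at 75% or more; inconclusive means only one of the two met; inactive means neither met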;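 further: stock transfer was 7.5 nL into about 7.5 µL; 0% = neutral wells and 100% = wells with inactivated enzyme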
# Target sequence (P55789 whole entry, looked up): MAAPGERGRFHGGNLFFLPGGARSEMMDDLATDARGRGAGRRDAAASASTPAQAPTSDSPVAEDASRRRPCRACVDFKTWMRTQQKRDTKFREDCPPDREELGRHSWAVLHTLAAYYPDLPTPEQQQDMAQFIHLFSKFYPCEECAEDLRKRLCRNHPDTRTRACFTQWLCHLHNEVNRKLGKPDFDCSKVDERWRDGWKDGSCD
# LANA-H2B inh – blocks KSHV LANA binding to histone H2A/H2B; Q9QR71; cell-free LANA-H2A/H2B peptide, fluorescence polarization; inhibition, % (concentration not given with the values); actives 0.6% (n = 320,000); AID 2629; in the data active means inhibition mostly above about 10%, no sharp cut-off; inactive means mostly below about 6.7%;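 further: stock transfer was 7.5 nL into about 10 µL; 0% = median of vehicle wells and 100% = median of positive control wells; one replicate is shown; the record names a cut of 25% in any replicate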
# Ecoli rRNA inh OD600 – second read-out of Ecoli rRNA inh, no call of its own (marks repeat the call); OD600 change, %; measured here: OD600 growth;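 optical density of the mix in the first replicate; 0 = DMSO median and -100 = no signal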
# Ecoli rRNA inh RFP – second read-out of Ecoli rRNA inh, no call of its own (marks repeat the call); RFP signal change, %; measured here: RFP humanized mutant strains;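 first replicate; 0 = DMSO median and -100 = no signal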
# Active calls of the source: *; ? = inconclusive; nt = not tested or not shown.
SMILES,Calb FLC,Ecoli rRNA inh,Ecoli rRNA inh OD600,Ecoli rRNA inh RFP,Beta apoptosis,A1 inh,B2AR ag,T cruzi repl,ALR H2O2 inh,LANA-H2B inh
CN(C)CCOC(=O)C12CC3CC(CC(C3)C1)C2,30,nt,nt,nt,-3,-0.4,-17,7,-4,0.8
Cc1cc(=O)cc(C)n1-c1ccccc1N,-5,6,15,-5.3,-3,0.8,45*,-9,-4,-0.6
O=C1C(Cl)=C(Nc2ccccc2O)C(=O)N1CCc1ccccc1,10,nt,nt,nt,0,0.0,-43,-13,40,0.4
O=C(CSc1nnc(NC2CCCCC2)s1)NC1CCS(=O)(=O)C1 (configuration not stated),-9,nt,nt,nt,-1,-0.3,-3,1,9,2.5
COc1ccc(C)cc1NC(=O)CSc1nnc(CC(=O)Nc2ccccc2F)n1C,-22,-7,0,-2.7,1,-0.4,-1,-15,21,2.2
COc1cccc(NC(=S)N2CCC(NC(=O)C3CCCCC3)CC2)c1,0,7,5,-1.8,-4,0.3,-6,-6,3,-0.8
CCCCc1c(O)nc2ccccn2c1=O,-29,9,12,3.2,0,-0.5,0,-32,-11,2.5
COc1cccc(CNC(=O)C(=O)NCCC2CCCCN2S(=O)(=O)c2ccc(C)cc2)c1 (configuration not stated),11,7,5,0.6,nt,0.7,-10,19,-1,-1.4
CCCn1c(=O)n(C)c(=O)c2c(SCC(=O)NCc3ccco3)nc(C3CC3)nc21,-1,-11,-13,-1.4,2,-0.3,3,11,1,2.1
COc1cc(N/C=C2\CC(=O)NC(C)=C2C#N)cc(OC)c1OC,1,11,16,-5.6,5,-0.2,3,6,97*,1.7
CCOc1ccc2c(=O)c(-c3ccc4c(c3)OCCCO4)c(C)oc2c1,-24,nt,nt,nt,-4,2.3,1,6,-10,1.2
Cc1nnc(NC(=O)c2ccc3ccccc3n2)s1,-3,-2,0,3.0,1,-1.9,-2,-3,-2,-4.4
CCOc1ccc(OCCCCOc2ccccc2C(C)=O)cc1,1,nt,nt,nt,2,0.1,-4,3,-14,1.6
COc1cc2c(cc1OC)C1(CCCC1)CNC2C (configuration not stated),1,14,19,-7.7,-4,-0.5,-2,-9,-1,-9.1
O=C(Nc1nc(=O)c2ccccc2s1)c1ccc(Cl)cc1,?,nt,nt,nt,2,-5.7,-9,-5,-4,0.7
CCOC(=O)CSc1nnc(CNC(=O)c2ccco2)n1-c1ccc(F)cc1,-1,nt,nt,nt,-5,0.9,-11,-2,-6,2.3
COc1cccc(CC(NC(C)=O)C(=O)NC2CCN(c3nnnn3-c3ccccc3)CC2)c1OC (configuration not stated),8,17,9,2.4,-4,-0.4,5,-11,-12,-0.4
CC(C)C(=O)Nc1ccc(C(=O)Nc2ccc(S(=O)(=O)N3CCOCC3)cc2)cc1,17,nt,nt,nt,1,0.0,-3,2,-8,-1.3
CCOc1ccccc1N(CC(=O)N1CCOCC1)S(=O)(=O)c1ccccc1,0,nt,nt,nt,-8,-0.6,0,-2,-3,-0.5
Cc1csc(NC(=O)c2ccc(S(C)(=O)=O)cc2)n1,8,-5,3,-1.6,-1,-0.7,-9,-10,1,-12
Cc1cccc(-n2c(SCC(=O)N(C)C3CCS(=O)(=O)C3)nc3ccccc3c2=O)c1C (configuration not stated),4,7,-1,-0.6,-2,0.2,-1,17,nt,0.1
COC(=O)c1cccc2c1-c1ccccc1/C2=N\NC(N)=O,10,-4,6,5.1,0,0.0,22,13,2,1.5
O=C(Nc1cc(SCCO)cc([N+](=O)[O-])c1)c1ccc(Br)o1,12,nt,nt,nt,10,-0.3,-22,-8,-81,-4.0
O=C(COC(=O)C1CC(=O)N(c2ccc3c(c2)OCCO3)C1)Nc1ccc2c(c1)CCC2 (configuration not stated),-4,nt,nt,nt,-2,-0.7,5,nt,nt,13
O=C(c1ccc(S(=O)(=O)N2CCOCC2)cc1)N1CCN(C2=NS(=O)(=O)c3ccccc32)CC1,-6,nt,nt,nt,-5,0.2,8,-11,-6,-5.5
O=C(Cc1ccccc1)NCC(=O)N/N=C/c1ccc(Cl)cc1,-7,3,10,-0.9,-7,0.7,3,1,2,3.0
COc1ccc(C(=O)NCC(=O)OCC(=O)Nc2cc([N+](=O)[O-])ccc2F)cc1,19,4,-8,-1.7,-1,0.9,2,-12,6,2.2
COC(=O)CSC1=C(C#N)C(c2ccc(C(C)C)cc2)CC(=O)N1 (configuration not stated),2,-2,-5,3.3,nt,0.4,6,-6,26,-6.5
CC(C)(C)c1ccccc1NC(=O)c1ccco1,-1,nt,nt,nt,-2,0.1,-3,4,-2,1.4
CN1CCN(c2ccccc2NC(=O)c2ccc(F)cc2)CC1,4,11,2,-4.5,2,-0.9,-3,20,-3,-6.5
COc1cc2cc(CN(CCc3cccc(C)c3)C(=S)NCCCN(C)C)c(=O)[nH]c2cc1OC,27,-38*,-8.5*,3.8*,-10,0.7,17,22,-13,-0.7
CCOCCCNCC(=O)Nc1ccccc1N1CCOCC1,nt,nt,nt,nt,-2,0.4,0,nt,97*,1.4
CN(C(=O)Cc1ccccc1)n1cnnc1,13,nt,nt,nt,-7,-0.2,-3,-9,-7,1.8
CCCCNC(=O)N1CCN(Cc2ccc(F)cc2)CC1,-18,15,21,3.1,10,0.0,0,-3,-1,-9.2
O=C(CCc1nnc(CCCCc2ccccc2)o1)N1CCCCC1CCO (configuration not stated),0,0,2,2.6,-2,-0.7,-5,-1,nt,-1.3
Cc1cc(C)nc(Nc2nc(-c3ccccc3)cs2)n1,-1,-12,5,-4.6,7,-6.2,-5,7,nt,1.1
Cn1c(=O)c(Nc2ccc(Cl)cc2)c2c3c(cccc31)C(=O)c1ccccc1-2,46,32,7,7.0,-2,-0.5,nt,41,-3,66*
CCCCCOC(=O)Cn1c(SCC(=O)Nc2ccccc2)nc2c1c(=O)[nH]c(=O)n2C,28,nt,nt,nt,-4,0.4,1,6,-19,1.5
Cc1cccc(C)c1NC(=O)COC(=O)c1ccccc1Nc1ccccc1,-26,nt,nt,nt,-1,-0.1,3,11,1,-0.7
Cc1ccccc1N(CC(=O)N/N=C/c1ccc(Cl)cc1)C(=O)c1ccccc1,44,nt,nt,nt,-3,-0.3,9,15,-13,-5.6
COc1ccc(NC(=O)CN(c2ccc(C)cc2)S(=O)(=O)c2c(C)nn(C)c2C)cc1,2,-2,-5,-1.8,2,-1.7,-2,-2,-2,-0.6
O=C(OCCNC(=O)c1ccc2ccccc2n1)c1cccnc1,-6,nt,nt,nt,2,0.5,-10,-9,-8,-0.7
CN1CCN(CC(=O)Nc2c(C(=O)c3ccccc3)oc3ccccc23)CC1,-7,-1,5,12,-1,0.1,-4,18,nt,-6.2
COc1ccc(C(=O)CC(=O)C(=O)Nc2ccc(C)c(Cl)c2)cc1,-4,-15,-15,10,0,-1.0,8,11,17,-1.8
CCCn1c(-c2cccc([N+](=O)[O-])c2)nc2c1c(=O)[nH]c(=O)n2Cc1ccccc1,-10,nt,nt,nt,-2,0.2,-17,19,11,3.6
COc1ccc(NC(=O)c2ccc3ncsc3c2)c2ccccc12,-3,8,5,0.1,-8,-0.3,1,2,-13,1.1
CCOC(=O)C(/C(C)=N/NC(=O)c1ccccc1[N+](=O)[O-])C(C)C (configuration not stated),6,nt,nt,nt,2,-0.8,-1,-2,-10,1.5
CCN(CC(=O)Nc1ccc2c(c1)OCCO2)Cc1nc2cc(Cl)ccc2c(=O)[nH]1,nt,-9,-11,1.0,2,1.9,3,nt,nt,-0.8
COCCCC1CCN(C(=O)C2CCC(=O)N(CC3CCCCC3)C2)CC1 (configuration not stated),-8,0,8,-1.4,-1,-1.0,0,0,-5,8.9
Cn1cnnc1SCC(=O)NC1CC1,nt,15,16,1.1,2,-0.8,0,nt,-23,0.6

# The list goes on.
SMILES,Calb FLC,Ecoli rRNA inh,Ecoli rRNA inh OD600,Ecoli rRNA inh RFP,Beta apoptosis,A1 inh,B2AR ag,T cruzi repl,ALR H2O2 inh,LANA-H2B inh
CCN(Cc1ccccc1)C(=O)c1ccc(C)c(S(=O)(=O)N2CCCCC2)c1,nt,-11,-11,-0.5,-10,0.0,3,nt,-2,-6.0
CN1CCN(/N=C2/C(=O)Nc3ccc([N+](=O)[O-])cc32)CC1,21,-10,-1,-2.4,-3,-1.0,5,10,-9,1.6
CSc1ccccc1C(=O)Nc1ccc2c(c1)OCCO2,-7,nt,nt,nt,nt,-5.0,9,2,-4,-3.8
O=C(CN1C(=O)C(=O)c2ccccc21)NC1CCCCC1,-79,nt,nt,nt,-12,0.5,-6,-12,-30,-3.0
O=C(N/N=C\C1CC=CCC1)c1ccc(Br)o1 (configuration not stated),2,4,-1,-1.8,-5,1.6,2,-4,4,-2.5
CCCN1C2CCCC1CC(NC(=O)c1ccccc1)C2 (configuration not stated),11,nt,nt,nt,-2,0.6,-1,-6,-2,3.6
O=C(NC1CCCCC1)[C@@H]1CSC2c3ccccc3C(=O)N21 (some centres not stated),-7,3,11,0.4,-4,-0.7,3,-15,2,0.4
Cn1nc(CC(=O)Nc2ncc(Br)s2)c2ccccc2c1=O,10,nt,nt,nt,7,-0.4,0,-14,-1,-0.6
O=C(O)CSc1nccn1-c1cccc(Cl)c1,-7,nt,nt,nt,-5,-0.2,39,-12,-6,-8.1
O=[N+]([O-])c1cccc(-c2cc(C(F)(F)F)n3nc(-c4ccccc4)cc3n2)c1,1,nt,nt,nt,2,0.7,1,0,0,0.3
Nc1n[nH]c(N)c1N=Nc1ccc(Cl)cc1,20,nt,nt,nt,-11,-0.5,-7,-9,nt,-3.4
CN(CC(=O)NCCc1ccc(S(N)(=O)=O)cc1)S(=O)(=O)/C=C/c1ccccc1,2,nt,nt,nt,-5,0.3,-2,3,-3,6.3
Cc1cc(C=O)c(C)n1-c1ccc(NC2CCCC2)c([N+](=O)[O-])c1,6,-38,-52,-15,-3,-0.4,4,33,-3,-2.8
Oc1ccccc1C1CC(c2cccs2)=NC(c2ccc(Cl)cc2)N1 (configuration not stated),?,-45,-58,0.2,39,0.0,16,-6,12,-4.9
CC(=O)Nc1ccc(S(=O)(=O)Nc2ccccc2C(=O)N2CCOCC2)cc1,-4,2,0,-3.5,1,0.3,0,-15,0,-1.2
COc1ccc2oc(C(=O)CCC(=O)O)c(N)c2c1,1,0,9,-9.4,1,-0.1,1,1,nt,1.0
O=C(CSc1nccn1-c1ccccc1)NCc1ccc(F)cc1,5,-5,-1,-3.9,-3,-0.3,1,-9,-2,nt
COC(=O)c1ccc(CSc2nc(C(F)F)cc(C)c2C#N)o1,17,-2,2,2.3,-9,0.3,4,-18,6,1.9
CC(C)CCn1cnc2c([nH]c3cccc(Cl)c32)c1=O,-4,nt,nt,nt,-1,-0.2,1,14,-10,1.8
CC(C)C[C@H]1CN=C(Nc2ccccc2)N1CC(C)C,nt,8,13,2.1,0,0.6,0,nt,nt,-0.5
Cc1ccc(NS(=O)(=O)c2c(C(=O)N3CCOCC3)c(C)n(C)c2C)cc1C,-3,9,6,-2.6,nt,-1.7,-1,4,-1,-4.5

# A portion of the library, so the mix of outcomes need not match the whole.
